VACV Venus inh: qHTS for Stage-Specific Inhibitors of Vaccinia Orthopoxvirus: Venus Reporter Primary qHTS; 0.46% of 330,000 active; AID 720580, 2013; Vaccinia virus Venus reporter expression, fluorescence; Potency, µM (doses to about 36.5 µM), for inactives: top-dose activity change, negative = inhibition, actives largely listed as inhibitors; active means well fitted inhibition curve with a large enough effect; inconclusive means small, poorly fitted or top-dose-only effect; inactive means no such curve, though single readings can be large or run the other way; tested in A549 cells; further: nearly all actives have a fitted effect of over 30% in size; inactives centre near -10
VACV mCherry inh: qHTS for Stage-Specific Inhibitors of Vaccinia Orthopoxvirus: mCherry Reporter Primary qHTS | Vaccinia virus mCherry reporter infection, fluorescence; about a quarter of the inactives have no number | Potency, µM (highest dose often 36.5 µM), without a hit: top-dose activity change, negative = inhibition, usual class: inhibitors | 0.63% of 310,000 active; active = well fitted inhibition curve with a large enough effect; inconclusive = small, poorly fitted or top-dose-only effect; inactive = no such curve, though single readings can be large or run the other way; tested in A549 cells; further: nearly all actives have a fitted effect of over 35% in size; inactives centre near -10
Numbers without * were called inactive; i = inactive; ? = inconclusive; . = not tested or not shown; & = joins results of further samples; [ ] = dose if it differs, or a comment. On the % scale 0 is the no-effect control and ±100 the full control effect; potency means the concentration at half of the fitted maximal effect.

SMILES	VACV Venus inh	VACV mCherry inh
COCCc1nn2c(=O)cc(COC(=O)c3ccccc3C)nc2s1	-8%[7.34 µM]	-9%[7.34 µM]
CN(C)/C=N/c1sc2c(c1C#N)CC(C)(C)NC2(C)C	-11%	-13%
COc1ccc(/C=C/C(=O)c2ccc(NS(=O)(=O)c3ccc(C)cc3)cc2)cc1O	?	13µM*
O=C(COC(=O)C1CCCC1)Nc1ncc(Cl)cc1Cl	-3%	-11%
Cc1cc(C)nc(SCc2cc(=O)c(OC(=O)c3cc([N+](=O)[O-])ccc3Cl)co2)n1	-2%	-4%
CC(C)(C)n1nnnc1C(c1ccncc1)N1CCN(c2ccc(O)cc2)CC1 (stereo not drawn)	2%	i
Cc1ccc(S(=O)(=O)Nc2ccc(O)c3ccccc23)c(C)c1	-16%	-20%
CC(=O)c1cc(F)ccc1OCC(=O)Nc1ccc2c(c1)OCO2	-17%	-20%
O=C(Nc1ccncc1)c1cnn2c1NC(=C1CC1)C=C2C(F)F	?	?
COc1cc(OC)cc(C(=O)N[C@H](C(=O)NCCc2c[nH]c3ccccc23)C(C)C)c1	-28%	-14%
Cc1ccccc1OCC(=O)Nc1ccccc1N1CCOCC1	-1%	.
COc1cccc(/C=C2\SC(=S)N(CCC(=O)NC3C=CS(=O)(=O)C3)C2=O)c1 (stereo not drawn)	16%[7.34 µM]	i[7.34 µM]

5 entries from above, with two lines to a compound:
Value order: VACV Venus inh, VACV mCherry inh
- O=C(Nc1ccncc1)c1cnn2c1NC(=C1CC1)C=C2C(F)F
→ ?, ?
- Cc1ccccc1OCC(=O)Nc1ccccc1N1CCOCC1
→ -1%, .
- CN(C)/C=N/c1sc2c(c1C#N)CC(C)(C)NC2(C)C
→ -11%, -13%
- Cc1cc(C)nc(SCc2cc(=O)c(OC(=O)c3cc([N+](=O)[O-])ccc3Cl)co2)n1
→ -2%, -4%
- COc1cc(OC)cc(C(=O)N[C@H](C(=O)NCCc2c[nH]c3ccccc23)C(C)C)c1
→ -28%, -14%

(continued)
SMILES	VACV Venus inh	VACV mCherry inh
CC(C)C(C(=O)Nc1ccc(N2CCOCC2)cc1)N1C(=O)c2ccccc2C1=O (stereo not drawn)	-8%	i
CN1CCN(c2c(N)c(=O)oc3ccccc23)CC1	-2%	-16%
C/C(CC(=O)Nc1ccc(Cl)c(C(F)(F)F)c1)=N\NC(=O)c1cnccn1	-20%	?
COc1ccc(OC)c(NC(=O)CSc2nnnn2-c2ccc3c(c2)OCO3)c1	0%	-23%
Cn1ccc(O)c(C#N)c1=O	-2%	-3%
CC(=O)OC(COC1C[C@@H]2CC[C@@]1(C)C2(C)C)C[N+]1(C)CCCCC1 (stereo partly drawn)	-7%	-12%
CNC[C@H](CC1CCCCC1)NC[C@H](CO)NCCc1cccc(C(F)(F)F)c1	20µM*	?
COC(=O)c1c(NC(=O)Cc2ccccc2)sc2c1CCN(C(C)C)C2	-23%	?
CN(C)c1nc2c(c(=O)[nH]c(=O)n2C)n1Cc1ccc(F)cc1	0%	i
COC(=O)c1cc(NC(=O)Cn2nc(C)n3cccc3c2=O)cc(C(=O)OC)c1	-7%	-9%
O=C(/C=C/c1ccccn1)NCC1Cc2cccc(-c3ncccn3)c2O1 (stereo not drawn)	-16%	0%
O=C(Nc1ccc(Cl)cc1)N(Cc1nnc2n1CCCCC2)c1ccccc1	-12%	-13%
CCC(C)N1Cc2ccccc2C1=N (stereo not drawn)	-11%	-1%
COc1cc(OC)cc(C(=O)Nc2nc(-c3nnn(-c4ccc(F)c(Cl)c4)c3C)ns2)c1	?	-25%
COc1cc(OC)cc(C(=O)N2CCN(C(=O)c3cccs3)CC2)c1	-5%	9%
CC(=O)Nc1ccc(-c2cc(C(=O)O)c3cc4ccccc4cc3n2)cc1	-4%	i
CC(C)Oc1ccc(C(=O)Nc2ccc(C(F)(F)F)n(C)c2=O)cc1	-15%	i
COc1cccc(Cn2cnc3c(sc4nc(C)cc(C)c43)c2=O)c1	1%	-6%
CCc1ccc(N2CCn3c2nc2c3c(=O)n(Cc3ccc(F)cc3)c(=O)n2C)cc1	-18%	-18%
COC(=O)CCC(=O)N(CCN(Cc1ccccc1)C(=O)CCC(=O)OC)Cc1ccccc1	-4%	-9%
O=C(NCc1ccc2c(c1)OCO2)c1cccc(N2CCCC2=O)c1	-4%	1%
CCCc1c(C)c2ccc(O)c(CN3CCN(c4ccc(F)cc4)CC3)c2oc1=O	-17%	-21%
N#Cc1ccc(NC(=O)C2Cc3ccccc3CN2S(=O)(=O)c2ccc(F)cc2)cc1 (stereo not drawn)	-23%	-15%
CCOC(=O)C1=NNC(C(=O)c2ccc(C)cc2)C1c1ccc(OC)cc1 (stereo not drawn)	-19%	-23%

Of the compounds above, these contain an aryl thioether with sulfur outside any ring:
SMILES	VACV Venus inh	VACV mCherry inh
Cc1cc(C)nc(SCc2cc(=O)c(OC(=O)c3cc([N+](=O)[O-])ccc3Cl)co2)n1	-2%	-4%
COc1ccc(OC)c(NC(=O)CSc2nnnn2-c2ccc3c(c2)OCO3)c1	0%	-23%

(continued)
SMILES	VACV Venus inh	VACV mCherry inh
Cc1cc(C)c(C#N)c(N2CCN(S(=O)(=O)Cc3ccccc3)CC2)n1	-22%	i
COc1ccc(C2CC3(CC(C)(C)NC(SC)=N3)Oc3cc(O)cc(C)c32)cc1 (stereo not drawn)	-24%	?
CCN(CCNC(=O)Cn1cc2c(n1)CCCC2)c1ccccc1	-7%	-5%
C=CCn1c(SCc2ccc(C(=O)NCCO)cc2)nc2sc(C)c(C)c2c1=O	-10%	-15%
O=C(/C=C/c1ccccc1)N1CCC[C@H]1CO	-7%	i
Cc1ccc(Cl)cc1N1CCN(C(c2cccnc2)c2nnnn2C2CCCCC2)CC1 (stereo not drawn)	52%[activator]	31%[activator]
O=C(/C=C/c1ccc(Cl)cc1)NC(=S)Nc1ccc(NC(=O)c2ccco2)cc1	-29%	-21%
Cn1cc(S(=O)(=O)Oc2ccccc2)c(=O)n(C)c1=O	-4%	-4%
COCc1nnc(NC(=O)c2ccc(S(=O)(=O)N3CCCCCC3)cc2)o1	-13%	-4%
Cc1ccc(F)c(S(=O)(=O)NC(=O)C2(C)CCN2C(=O)Cc2cccs2)c1 (stereo not drawn)	-7%	49%[activator]
Cc1ccc(CNS(=O)(=O)c2ccc3c(c2)CCN3S(C)(=O)=O)cc1	-4%	-3%
Cc1nc(-c2cccc(S(=O)(=O)N3CCC(C(=O)NCc4ccccc4)CC3)c2)no1	-13%	-19%
O=C1NC(=O)C(CC(=O)N(Cc2cccs2)C2(C(=O)NC3CCCCC3)CCCCC2)N1 (stereo not drawn)	-16%	i
O=C(CN1C(=O)NC(Cc2ccccc2)C1=O)NC(=O)NC1CCCCC1 (stereo not drawn)	-15%	-1%
Cc1ccc(S(=O)(=O)Cn2nnnc2C(C(C)C)N2CCc3ccccc3C2)cc1 (stereo not drawn)	-7%	-8%
c1ccc(CNc2ccnc(-c3ccc4c(c3)OCO4)n2)cc1	0%	0%
COc1ccccc1NC(=O)CSc1nnc(-c2nonc2NC(C)=O)n1-c1ccccc1	-10%	-6%
CC(=O)Nc1ccc(C(=O)CN2C(=O)NC3(CCOc4ccccc43)C2=O)c(F)c1 (stereo not drawn)	-12%	-19%
O=C(O)c1cc(N/N=C/c2c[nH]c3ccccc23)ccc1Cl	9%	-16%
COc1cccc(NC(=O)[C@@H](NC(=O)N2CCn3c2nc2ccccc23)C(C)C)c1	-20%	-17%
O=C(NNC(=S)Nc1ccc(F)c(Cl)c1)c1ccccc1Br	-20%	-19%
Cc1ccc(S(=O)(=O)N2CCN(C(=O)c3ccc(N4CCC(C)CC4)c([N+](=O)[O-])c3)CC2)cc1	-16%	?
COc1ccc(N2CCN(c3oc(/C=C/c4cc(OC)c(OC)c(OC)c4)nc3C#N)CC2)cc1	-18%	-18%
COc1ccc(C2c3c(n(C)c4ccccc34)C(=O)N2CC(=O)Nc2cccc(Cl)c2)cc1 (stereo not drawn)	-7%	-12%

Brought forward from above: 6 compounds; new compounds follow.
SMILES	VACV Venus inh	VACV mCherry inh
O=C(O)c1cc(N/N=C/c2c[nH]c3ccccc23)ccc1Cl	9%	-16%
COc1cccc(NC(=O)[C@@H](NC(=O)N2CCn3c2nc2ccccc23)C(C)C)c1	-20%	-17%
O=C(NNC(=S)Nc1ccc(F)c(Cl)c1)c1ccccc1Br	-20%	-19%
Cc1ccc(S(=O)(=O)N2CCN(C(=O)c3ccc(N4CCC(C)CC4)c([N+](=O)[O-])c3)CC2)cc1	-16%	?
COc1ccc(N2CCN(c3oc(/C=C/c4cc(OC)c(OC)c(OC)c4)nc3C#N)CC2)cc1	-18%	-18%
COc1ccc(C2c3c(n(C)c4ccccc34)C(=O)N2CC(=O)Nc2cccc(Cl)c2)cc1 (stereo not drawn)	-7%	-12%
CN(C)CCNC(=O)C(=O)NCC(c1ccc2c(c1)OCO2)N1CCOCC1 (stereo not drawn)	-1%	3%
O=[N+]([O-])c1ccn(-c2nc(-c3ccccc3)cc(C(F)(F)F)n2)n1	17%	-8%
COc1ccc(OC)c(Nc2nc(NCCO)c3ccccc3n2)c1	-30%	-22%
CCOCc1cc(CN2CCC(n3nccc3NC(=O)C3CC3)CC2)ccc1OC	-11%	i
COc1ccc(NC(=O)c2cccn2-c2nnc(N3CCCCC3)s2)cc1Cl	-20%	-17%
Cc1cc(C(F)F)n2nc(C(=O)Nc3ccc(S(=O)(=O)N4CCCC4)cc3)nc2n1	-4%	.
CC1(c2nc3ccccc3[nH]2)c2ccccc2C(=O)N1Cc1ccccc1 (stereo not drawn)	-11%	-11%
CCOC(=O)c1nn(-c2ccccc2)c(=O)c2c(N)scc12	-16%	-5%
COc1ccc(C2C(C(=O)Nc3cccnc3)=C(C)Nc3nc(-c4cccs4)nn32)cc1OC (stereo not drawn)	-2%	2%
C=CCNC(=S)NNC(=O)c1ccc(Br)cc1	-4%	-12%
CN1C(=O)/C(=C/c2ccc3c(c2)OCO3)N=C1c1ccccc1	-6%	-13%
COc1ccc(CN(Cc2cc3cccc(C)c3n3nnnc23)C(=O)N2CCOCC2)cc1	-5%	11%
O=C1C(Cl)=C(Nc2ccc(O)cc2)C(=O)c2ccccc21	?	?
CCN(CC)S(=O)(=O)c1ccc(C(C)NCC(=O)Nc2ccccc2C(=O)NC2CC2)cc1 (stereo not drawn)	-7%	i
CCn1cc(CN2CCCC(C(=O)c3sccc3C)C2)cn1 (stereo not drawn)	-15%	-11%
COc1ccc(Br)cc1CN1CCN(Cc2c[nH]c3ccccc23)CC1	?	?
O=C1Cc2cc(S(=O)(=O)N3CCN(c4cccc(Cl)c4)CC3)ccc2N1	-6%&2%	-1%&8%
NNc1nc2sc3c(c2c(=O)n1-c1ccccc1)CCCC3	-11%	-22%
Cc1ccc(COC(=O)c2ccc3ccccc3n2)cc1	-5%	-10%
COc1ccccc1/C=C1\Cc2ccccc2C1=O	-13%	-4%
COc1ccc(-n2nc(C(=O)NCC(=O)NC3CCCC(C)C3C)c3ccccc3c2=O)c(OC)c1 (stereo not drawn)	0%	-12%
COCC(=O)Nc1cc(C(=O)N2CC3CC4CC(C3)CC2C4)c2c(c1)nc(-c1ccncc1)n2C	-2%	-5%
O=S1(=O)CCOCCCN1Cc1ccccc1Br	-5%&-12%	-3%
COc1ccc(-c2noc3c2-c2nc(-c4ccc(Br)cc4)sc2CC3)cc1	-21%	-16%
Cc1c(C(=O)OC2CCCCCC2)[nH]c2c1C(=O)CC(c1ccccc1)C2 (stereo not drawn)	-9%[7.34 µM]	-19%[7.34 µM]
Cn1nc(C(=O)Nc2ccc3c(c2)OCCO3)cc1C(=O)O	-2%	-7%

Screens deposited in PubChem BioAssay by National Center for Advancing Translational Sciences (NCATS).
